Assay outcomes from PubChem BioAssay.
Autofluor counter: flagged as autofluorescent in microsphere protease counterscreen; compound autofluorescence counterscreen, microsphere flow cytometry; stronger effect = higher value; actives 3.1% (n = 360,000); fluorescence intensity (concentration not given with the values); AID 624483;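 active means at least 3 SD above the mean of all compounds, about 16000 in these data; inconclusive means too few beads counted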;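 further: 100 nL of 1 mM stock went into each well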
Mtb hypoxia rep: Mtb hypoxia fluorescent reporter inhibition | M. tuberculosis hypoxia-regulated fluorescent reporter, fluorescence | fluorescence inhibition, % (test concentration not listed) | actives 0.1% (n = 300,000) | AID 1159583;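 active means 35 to 45% if threefold the growth effect, above 45% if 1.5-fold the growth effect; inactive means the rest, general growth blockers included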;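 further: wells of about 50 µL received 100 nL stock; 0% = vehicle wells and 100% = reference inhibitor wells; whole bacteria with a GFP reporter of the hypoxia response; strong numbers were not always called active; many hits fall short of the cut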
PrP UTR inh: suppresses PrP 5' UTR mRNA reporter expression. cell-based PrP 5' UTR mRNA reporter, plate reader. inhibition, % (test concentration not listed). actives 0.35% (n = 340,000);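 active means every replicate at 50% or more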;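 further: 0 = median of the neutral control wells; tested in H4 reporter cells; numbers are from one replicate; inactives centre near -14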
RN4220 kill: S. aureus RN4220 growth inhibition; OD600, 16 h; inhibition, % (no concentration beside the values); AID 1259311; actives 0.33% (n = 330,000);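 active means z-score of -3 or lower and OD600 up to 0.18 on both plates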;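 further: plate controls were untreated cells for no effect and reference antibiotic for full effect; stock transfer was 100 nL into about 80 µL; one replicate is shown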
BJeLR viability: kills HRASV12-expressing BJeLR cells | BJeLR (HRASV12) viability, CellTiter-Glo ATP luminescence, 48 h; reference of the scale not given here | inhibition, % (concentration not given with the values) | actives 0.17% (n = 300,000);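 active means replicate mean above 50%; inconclusive means above 50% but judged a plate artefact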;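 further: 50 nL library stock added to about 25 µL; numbers are from one replicate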
ugtP null kill: kills S. aureus RN4220 lacking UgtP. S. aureus RN4220 ugtP deletion, OD600 growth, 16 h; some inactives read as strong as hits. growth inhibition, % (test concentration not listed). actives 0.54% (n = 330,000). AID 1259309;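 active means z-score under -3 and OD600 up to 0.15 on both plates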;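 further: plate controls were untreated wells for no effect and antibiotic for full effect; wells of about 80 µL received 100 nL stock; the first replicate is given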
Mtb hypoxia rep growth: recorded beside Mtb hypoxia rep, whose call it bears; growth inhibition, %; measured here: M. tuberculosis growth (absorbance);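 0% = vehicle and 100% = reference antibiotic; read after six days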
Active calls of the source: *; ? = inconclusive; nt = no result given.

SMILES	Autofluor counter	Mtb hypoxia rep	Mtb hypoxia rep growth	PrP UTR inh	RN4220 kill	BJeLR viability	ugtP null kill
CC(CNCC1CCCO1)COc1cccc2ccccc12 (stereo unspecified)	2409	nt	nt	-15	-0.2	0	3
O=C(Nc1ccc(N2CCOCC2)c(Cl)c1)c1ccc(Br)o1	4105	8	12	-104	5.2	5	0
O=C(Nc1ccc(Oc2ccccc2)cc1)C1CC1	3165	2	15	-30	-2.6	-3	-1
COc1ccc(-n2c(N)c(C(=O)NCc3ccco3)c3nc4ccccc4nc32)c(OC)c1	3001	7	8	-10	-15	-4	4
CC(=O)c1cccc(NC(=O)COc2ccccc2C(=O)c2cc(C#N)c(=O)n(C3CCCCC3)c2)c1	2058	-2	3	-20	-1.0	-15	-1
COc1ccccc1C(CNC(=O)C1CC(=O)N(Cc2ccccc2)C1)N1CCCC1 (stereo unspecified)	12905	-2	-4	1	3.0	nt	3
CCOC(=O)c1nnn(-c2nonc2N)c1CN(C)Cc1ccccc1	2752	nt	nt	-17	2.9	1	-1
CCc1ccc(N2C(=O)Nc3ccccc3C2(O)C(=O)N2CCN(c3ccccn3)CC2)cc1 (stereo unspecified)	4217	9	2	-3	2.2	-8	4
COc1ccc2c(c1)C=C(CN1CCN(C3CCCC3)C(CCO)C1)CO2 (stereo unspecified)	4264	-13	4	-1	5.3	-37	0
COc1cccc(OCC(=O)Nc2cc(Cl)ccc2Oc2ccccc2)c1	2633	5	-10	-9	1.4	nt	10
CC(C)CC(=O)Nc1cccc(NC(=O)CC(C)C)n1	2171	12	6	-37	5.3	4	-1
CC(C)Cn1c(-c2ccc(Br)cc2)c[nH]c1=S	4390	1	7	-20	0.8	-3	10
CC1=CC(C)C2(COC(c3ccc[n+](C)c3)OC2)C(C)C1 (stereo unspecified)	4081	13	18	-32	0.6	nt	11
COc1ccc(C2NC(=O)C(C#N)=C(S)N2c2cccc(C)c2)cc1OC (stereo unspecified)	4250	-1	-3	-23	4.0	-8	2
COc1ccc(CCN2C(=O)NC(NC(C)=O)(C(F)(F)F)C2=O)cc1OC (stereo unspecified)	2298	10	10	-20	3.6	-6	5
Cc1c(C(=O)NNC(=S)NCc2ccc(Cl)cc2)oc2ccccc12	5589	4	6	0	4.1	5	-7
COc1ccc(OC2C=CC(c3ccccc3)OC2CON=C(C)CCC(=O)OCC2OC(c3ccccc3)C=CC2Oc2ccc(OC)cc2)cc1 (stereo unspecified)	nt	6	19	nt	10	nt	7
O=[N+]([O-])c1ccc(-c2ccc(C=NNc3nc(NCc4ccccc4)nc(N4CCOCC4)n3)o2)cc1	nt	-23	2	nt	3.2	nt	4
CC(=O)c1ccc(S(=O)(=O)NCCCC(=O)NCCc2ccccn2)cc1	6024	3	6	-76	3.1	1	5
COc1ccc2nc(C)cc(SCC(NC(C)=O)C(=O)OC(C)C)c2c1 (stereo unspecified)	3872	nt	nt	-4	3.9	-2	10
Cc1cccc(S(=O)(=O)c2c(C)cc(C)nc2Cl)c1	4318	8	-1	-12	6.9	-3	11
CSCCC(NC(=O)c1ccco1)C(=O)NCC1CCCO1 (stereo unspecified)	8479	1	-8	10	3.0	nt	1
CC(C)CNC(=S)NC(=O)c1ccc(F)cc1	2252	6	8	-51	8.5	4	57
CC(C)CC(NC(=O)Nc1ccccc1F)C(=O)O (stereo unspecified)	nt	11	12	nt	4.6	nt	6
CC(C)Cn1c(CCC(=O)O)ccc1-c1cccs1	4274	-7	0	-4	1.1	3	11
Oc1c(C=C2N=c3ccccc3=N2)sc(=S)n1C1CCCC1	2041	2	0	-18	-2.4	-8	-3
CCNC(=S)NNC(=O)c1csc(C)c1	2443	8	8	-21	4.4	1	1
COc1ccccc1N1CCN(CC(O)COc2c(OC)cccc2OC)CC1 (stereo unspecified)	19582*	12	9	8	3.0	7	1
CCCc1nc2sc3ccccc3c(=O)c2c(=O)n1Cc1ccco1	3244	1	0	-11	-0.3	nt	6
CC(C)(C)OC(=O)N1CCN(C(=O)c2cccnc2Cl)CC1	4484	-1	-6	-18	4.3	1	2
O=C(Nc1ccc(S(=O)(=O)N2CCCCC2)cc1)C1CCCCC1	6037	-1	0	-34	5.0	-1	5
COc1ccc(CNc2nc3c(c(=O)[nH]c(=O)n3C)n2Cc2ccccc2)cc1	4114	12	-5	-15	1.4	0	2
O=C(Cc1ccc(Cl)cc1)Nc1ccc(C(=O)N2CCOCC2)cc1	3337	-8	-8	63*	4.6	1	3
CC(=O)c1ccc(S(=O)(=O)N(C)CC(=O)Nc2ccc(C)cc2)cc1	3945	6	7	-13	3.4	nt	0
COc1ccc(CCNC(=O)c2ccc(NC(=O)CC3SC(N4CCCCC4)=NC3=O)cc2)cc1OC (stereo unspecified)	3576	4	14	-6	2.5	nt	5
O=C1CC(N2CCC(n3c(=O)[nH]c4ccccc43)CC2)C(=O)N1Cc1ccccc1 (stereo unspecified)	4477	nt	nt	-19	3.7	-5	8
CCOC(=O)C1CCN(C(c2cc3ccc(C)cc3[nH]c2=O)c2nnnn2C2CCCCC2)CC1 (stereo unspecified)	28733*	-1	11	-17	5.0	-2	8
CCCC1=C(C(=O)OCC)C(c2ccccc2OCC)NC(=O)N1C (stereo unspecified)	10871	1	5	-23	2.5	3	3
CSCCC(NS(=O)(=O)c1ccc(Cl)cc1)C(=O)N1CCN(c2ccccc2)CC1 (stereo unspecified)	3926	0	10	-11	4.4	nt	10
O=C(Oc1ccccc1C(=O)Oc1ccccc1)c1ccco1	8267	4	4	-11	3.3	-9	6
COc1ccccc1CNC(=O)CSc1ccc(C)cc1	2232	10	10	-25	6.0	-4	-1
COc1ccc(NC(=O)CSc2nnc(Cc3cccn3C)n2CCc2ccccc2)cc1OC	8069	6	6	-6	5.1	-6	8
COc1ccc(N(C)S(=O)(=O)c2ccc3c(c2)oc(=O)n3C)cc1	nt	-1	2	-17	8.3	7	5
COC(=O)C1CCN(S(=O)(=O)c2ccc(OC)cc2)CC1	24359*	13	5	-11	1.4	-1	-8
CCNC(=O)c1c(NC(=O)C2COc3ccccc3O2)sc2c1CCCC2 (stereo unspecified)	2865	nt	nt	-20	5.5	-5	2
COc1ccc(Cl)cc1NS(=O)(=O)c1cccc(C(=O)NCCCN2CCCC2=O)c1	5588	-7	4	-4	2.3	-5	-2
NCCCC(=O)OC1N=C(c2ccccc2Cl)c2cc(Br)ccc2NC1=O (stereo unspecified)	4528	2	2	-10	0.1	-10	-4
Cc1nc(Oc2ccccc2)c2ccccc2n1	9814	1	3	-5	10	22	4
CCCc1cc(C(=O)Nc2cccc(Cl)c2)no1	7191	8	5	-19	8.3	2	11
Cc1ccc(Cn2ncc3c(N4CCN(C5CCCC5)CC4)ncnc32)cc1	5941	-8	6	-11	3.4	1	0

Going on with the list:
SMILES	Autofluor counter	Mtb hypoxia rep	Mtb hypoxia rep growth	PrP UTR inh	RN4220 kill	BJeLR viability	ugtP null kill
O=C(CSc1ccc2ccccc2c1)NCCCN1CCCC1=O	2155	-1	5	-19	6.2	-3	2
COCCNC(=O)Cn1cc(C=C2C(=O)NC(=O)NC2=O)c2ccccc21	3198	1	-4	nt	-1.5	7	-2
CC(=O)Nc1nc(N)n(-c2ccccc2)n1	10327	11	12	-22	3.6	4	3
O=C(NCc1ccc(F)cc1)C1CCC(CNc2c(N3CCCCC3)c(=O)c2=O)CC1 (stereo unspecified)	4721	-4	9	-8	3.3	10	4
O=C(NCCC1=CCCCC1)C1CCN(C(=O)Cc2ccccc2)CC1	4304	13	5	4	6.1	-4	2
O=C(NNC1=C(C(=O)C(F)(F)F)CCC1)c1ccccc1O	2923	-8	1	-26	100*	0	101*
COc1ccccc1-c1cc(C(=O)Nc2c(C)n(C)n(-c3ccccc3)c2=O)no1	16484*	9	-2	-20	1.0	-9	14
CC(=NNc1nc(-c2ccc(C)cc2C)cs1)c1cc2ccccc2oc1=O	nt	1	0	nt	15	nt	-7
O=C(CSc1ncnc2c1nnn2Cc1ccc(F)cc1)NC1CCCCC1	3523	4	3	-12	-4.1	-5	4
O=C(N/N=C/c1ccc(O)c2ccccc12)c1cccnc1	3100	nt	nt	-14	nt	-6	nt

Single records, as listed above.
O=C(CSc1ncnc2c1nnn2Cc1ccc(F)cc1)NC1CCCCC1 reads Autofluor counter: 3523; Mtb hypoxia rep: 4; Mtb hypoxia rep growth: 3; PrP UTR inh: -12; RN4220 kill: -4.1; BJeLR viability: -5; ugtP null kill: 4
O=C(NNC1=C(C(=O)C(F)(F)F)CCC1)c1ccccc1O reads Autofluor counter: 2923; Mtb hypoxia rep: -8; Mtb hypoxia rep growth: 1; PrP UTR inh: -26; RN4220 kill: 100*; BJeLR viability: 0; ugtP null kill: 101*
O=C(N/N=C/c1ccc(O)c2ccccc12)c1cccnc1 reads Autofluor counter: 3100; Mtb hypoxia rep: nt; Mtb hypoxia rep growth: nt; PrP UTR inh: -14; RN4220 kill: nt; BJeLR viability: -6; ugtP null kill: nt

The results go on:
SMILES	Autofluor counter	Mtb hypoxia rep	Mtb hypoxia rep growth	PrP UTR inh	RN4220 kill	BJeLR viability	ugtP null kill
Cc1ccc(C)c(-n2cc[nH]c2=S)c1	2073	3	4	-21	5.3	1	6
O=Cc1cn(CC(=O)Nc2ccccc2)c2ccccc12	3776	-8	-6	-14	1.0	-16	3
COC(=O)C1=C(c2cc3ccccc3o2)C[C@@H]2CC[C@H]1N2C(=O)NCCNC(C)=O	3536	nt	nt	-5	nt	-7	nt
COc1ccc(S(=O)(=O)N2CCOCC2)cc1NC(=O)COC(=O)C1CC2CCCC(C1)C2=O (stereo unspecified)	6676	1	-8	-30	1.0	3	5
COC(=O)Nc1nc2ccc(-c3n[nH]c(=O)c4ccccc34)cc2[nH]1	2548	0	0	4	2.2	9	-3
CC(Sc1nnc(NC2CCCCC2)s1)C(=O)N1CCOCC1 (stereo unspecified)	?	-12	-9	-12	1.6	-14	5
O=C(N=C1SC2CS(=O)(=O)CC2N1Cc1ccc(Cl)cc1)C1CCCO1 (stereo unspecified)	5540	-2	-4	-15	1.6	0	9
Clc1ccc2nc(CSc3nnc(-c4c[nH]c5ccccc45)o3)cn2c1	3764	-7	6	-13	-1.3	nt	-14
COC(=O)C1=C(C)NC(C)=C(C(=O)OCC2CCCO2)C1c1ccc(Cl)c([N+](=O)[O-])c1 (stereo unspecified)	5810	nt	nt	-8	nt	5	nt
COc1cc(CNCc2ccccn2)ccc1OCc1ccc(Cl)c(Cl)c1	2959	-2	-1	-52	-8.8	8	4
O=C(NC1CCCC1)c1noc2c1CCCCC2	9578	12	3	-57	4.6	-17	0
CS(=O)(=O)N1CCN(C(=O)c2c(F)cccc2F)CC1	23941*	2	8	-15	2.6	6	-3
Cc1ccc(NC(=O)C2COc3ccccc3O2)cc1S(=O)(=O)N1CCOCC1 (stereo unspecified)	8399	5	11	-19	1.1	nt	2
COc1ccc(C2NC(=O)NC(O)(C(F)(F)F)C2C(=O)c2ccc(F)cc2)cc1 (stereo unspecified)	4055	nt	nt	-8	0.4	-1	1
Cc1ccc2c(COC(=O)c3ccc(NC(=O)CC#N)cc3)cc(=O)oc2c1C	4530	-4	-1	-18	-2.7	-10	-2
CC(=NNC(=O)c1ccoc1C)c1ccc(Cl)s1	nt	1	3	nt	4.8	nt	-2
C=C(C)CN(Cc1ccccc1)C(=S)Nc1ccccc1	3515	11	11	-20	4.7	-8	14
CC(=O)NCC(=O)N1CCCC(C(=O)c2ccc(-c3ccccc3)c(F)c2)C1 (stereo unspecified)	4636	9	-2	-21	2.8	3	7
O=C(NCc1ccc(Cl)cc1)c1ccc(Cl)cc1[N+](=O)[O-]	3623	11	13	-5	7.2	-8	-5
CC1CN(CCC(=O)Nc2ccc3c(c2)OCO3)CC(C)O1 (stereo unspecified)	13186	4	11	-8	3.0	-4	2
COc1ccc(CNC(=O)COC(=O)CC2CCCC2)cc1	2613	1	14	-10	-2.7	0	15
COc1ccc(SCC(Cc2ccccc2)N2CCC(O)CCC2=O)cc1 (stereo unspecified)	nt	6	7	nt	6.0	nt	-1
C=CCOC(=O)/C(=C\c1ccc(OC)cc1)NC(=O)c1ccco1	2197	nt	nt	-36	1.1	7	1

Retrieved by compound from the list above, 2 records:
SMILES	Autofluor counter	Mtb hypoxia rep	Mtb hypoxia rep growth	PrP UTR inh	RN4220 kill	BJeLR viability	ugtP null kill
CC(=NNC(=O)c1ccoc1C)c1ccc(Cl)s1	nt	1	3	nt	4.8	nt	-2
C=CCOC(=O)/C(=C\c1ccc(OC)cc1)NC(=O)c1ccco1	2197	nt	nt	-36	1.1	7	1
